# PV pol inh: poliovirus RdRp elongation inhibitors, primary screen, biochemical, fluorescence polarization, total intensity. poliovirus polymerase elongation; active compounds read low. 150,000 compounds, 0.66% hits. % elongation, % (compound at 16.7 µg/mL). Genome polyprotein (Poliovirus type 1 (strain Mahoney)), P03300; in the data active = % elongation below about 90%; also: some results filed as inactive read as strong as hits
# Target sequence (P03300 1749-2209 limits assumed): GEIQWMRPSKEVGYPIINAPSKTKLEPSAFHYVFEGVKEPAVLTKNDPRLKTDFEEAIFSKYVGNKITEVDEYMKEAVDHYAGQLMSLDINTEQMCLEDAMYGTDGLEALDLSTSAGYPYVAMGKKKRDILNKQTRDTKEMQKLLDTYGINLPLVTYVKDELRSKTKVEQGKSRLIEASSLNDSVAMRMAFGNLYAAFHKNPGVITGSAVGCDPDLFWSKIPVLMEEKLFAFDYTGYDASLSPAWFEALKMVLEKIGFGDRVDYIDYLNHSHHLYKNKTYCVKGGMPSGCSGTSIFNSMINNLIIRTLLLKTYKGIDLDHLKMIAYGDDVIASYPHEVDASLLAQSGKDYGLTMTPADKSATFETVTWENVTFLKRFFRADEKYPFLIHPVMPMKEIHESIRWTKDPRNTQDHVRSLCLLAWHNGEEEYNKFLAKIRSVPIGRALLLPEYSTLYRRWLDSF
# PV pol inh intensity: also measured in PV pol inh; calls as there; % elongation; measured here: total intensity read-out; formula for this scale not given here;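 total fluorescence in place of polarization; lower means less elongation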
# * = called active by the depositor. An excerpt, so the mix of outcomes need not match the whole.
SMILES,PV pol inh,PV pol inh intensity
CN(Cc1ccc(F)cc1)S(=O)(=O)c1nnc(NC(=O)c2ccccc2Cl)s1,109,102
CCOC(=O)C(C)NC(=O)c1c2c(nc3ccccc13)C(=O)N(C1CCCCC1)C2 (stereo not given),111,112
O=C(Cn1c(=O)oc2cc(S(=O)(=O)N3CCCCC3)ccc21)Nc1cccc(Cl)c1,103,104
Cc1cc(C)c(Cn2cnc3nc4c(cc3c2=O)CCCC4)c(C)c1,106,106
COc1cccc(NC(=O)Cn2nnc(C(=O)NCc3cccs3)c2N)c1,99,106
Cc1ccc2c(CNC3CCC(C)CC3)c(C(=O)O)n(Cc3cccc(F)c3)c2c1 (stereo not given),108,107
O=C(NCCc1ccccc1)c1ccc(CS(=O)(=O)c2ccc(Br)cc2)o1,102,102
CC1CCCN(c2ncnc3c2nc2n3CCCCC2)C1 (stereo not given),106,107
COc1ccc(N2CCN(C(=O)c3cnc(N4CCOCC4)c4ccccc34)CC2)cc1,109,101
O=C1COc2ccc(-c3cc(-c4ccc(F)cc4)c4c(n3)-c3ccccc3OC4)cc2N1,106,108
Cc1ccc(C)c(CNC(=O)c2ccc3c(c2)nc2n3CCC(C)C2)c1 (stereo not given),111,109
Cc1ccc(C(=O)Nc2ccc3oc(-c4ccncc4)nc3c2)c(Cl)c1,108,111
Cc1ccc(-c2nnc(Nc3cccc(O)c3)c3ccccc23)cc1S(=O)(=O)NCC1CCCO1 (stereo not given),109,110
CCOC(=O)c1ccccc1NC(=O)Cn1nnc2sc3c(c2c1=O)CCCC3,103,112
Cc1ccc(NS(=O)(=O)c2cc3[nH]c(=O)c(=O)[nH]c3cc2C)cc1Cl,100,105
COc1cccc(C(=O)Nc2c(C(=O)NC(C)(C)C)oc3ccccc23)c1,108,92
Cc1oc(-c2ccccc2F)nc1CS(=O)(=O)CC(=O)N1CCN(c2cccc(C(F)(F)F)c2)CC1,107,109
Cc1ccc(S(=O)(=O)N2CCc3cc(C(=O)Nc4c(C)cccc4C(C)C)ccc32)cc1,108,110
COc1ccc(N(CC(=O)N2CCN(c3cccc(C)c3C)CC2)S(=O)(=O)c2c(C)noc2C)cc1,108,112
Cc1ccccc1NC(=O)Cn1c(=O)n(CCCCC(=O)NCc2ccccc2Cl)c(=O)c2ccccc21,105,103
COc1ccc(-c2noc(-c3ccc(NCc4ccco4)c([N+](=O)[O-])c3)n2)cc1OC,110,121
CCC(=O)Nc1nnc(S(=O)(=O)N2c3ccccc3CC2C)s1 (stereo not given),111,114
Cc1cc(C)c(Cn2c(C)c(CNCCCc3ccccc3)c(C(=O)O)c2C)c(C)c1,106,106
CCOC(=O)c1sc2ncn(CC(=O)Nc3cccc(C)c3)c(=O)c2c1C,108,111
Cc1ccc(Cn2c(SCC(=O)NCc3ccccc3)nc3ccsc3c2=O)cc1,105,109
Cc1cc(C)c2c(=O)cc(CSc3nnc(COc4ccccc4C)n3C)[nH]c2c1,109,100
COc1ccc(Cn2c(CCC(=O)Nc3ccc(Br)c(C)c3)nc3cccnc32)cc1,105,108
CCc1nc2cccnc2n1-c1ccc(CC(=O)Nc2ccc(C)cc2)cc1,109,109
COc1ccccc1C(=O)Nc1ccc(OCc2cc(=O)n3cccc(C)c3n2)cc1,110,115
Cc1ccc(-n2nc3ccc(NC(=O)c4oc5ccccc5c4C)cc3n2)cc1,112,115
Cc1ccc(-n2nc(C)c(C(=O)O)c2-n2cccc2)cc1,109,107
Cc1cc(N2CCN(C)CC2)nc2ccc(NC(=O)Nc3ccc(F)cc3F)cc12,104,104
Cn1c(=O)c2c(nc(SCC(=O)Nc3ccc(F)c(F)c3)n2Cc2ccccc2F)n(C)c1=O,104,107
CCOC(=O)c1cccc(NC(=O)CSc2cc(=O)n(C)c3ccccc23)c1,107,107
CC(C)(C)c1ccc(OCc2cc(=O)n3c4c(sc3n2)CCCC4)cc1,109,113
Cc1cc2oc(C(=O)N(Cc3ccco3)Cc3ccccc3Cl)c(C)c2cc1C,105,106
CCN(CC)S(=O)(=O)c1ccc2c(c1)c(=O)c(C(=O)NCCc1ccc(OC)c(OC)c1)cn2C,104,106
Cc1c(Cl)cccc1NC(=O)CSc1nc(=O)[nH]c2c1CCC2,103,100
Cc1ccc(S(=O)(=O)c2cn(C)c3cc(N4CCCC(C)C4)c(F)cc3c2=O)c(C)c1 (stereo not given),103,105
Nc1c(C(=O)Nc2ccccc2Cl)c2ccccn2c1C(=O)c1ccc(Cl)cc1,105,108
CC(=O)N1CCc2cc(CNS(=O)(=O)c3ccccc3C(F)(F)F)ccc21,106,108
COc1ccc(CCNC(=O)C(=O)NCC(c2ccc3c(c2)OCO3)N2CCOCC2)cc1 (stereo not given),108,104
CCOc1ccc(S(=O)(=O)c2cn(C)c3ccccc3c2=O)cc1,105,110
Cc1cccc(NC(=O)c2ccc3oc(=O)c(S(=O)(=O)c4ccc(F)cc4)cc3c2)c1C,112,110
COC(=O)c1ccccc1NC(=O)Cn1c(=O)n(CCC(=O)NCc2ccccc2OC)c(=O)c2ccccc21,106,103
Cc1cc(C)c2c(=O)cc(C(=O)Nc3sc4c(c3C(=O)NCC3CCCO3)CCCC4)oc2c1 (stereo not given),105,108
COc1cc2ccccc2cc1C(=O)Nc1ccc(Cl)c(-c2nc3ccccc3o2)c1,102,105
O=C(c1cc2ccc3cccnc3c2[nH]1)N1CCN(c2ccc(Cl)cc2)CC1,111,111
CCOc1ccc(-c2cc3nc(C4CCN(C(=O)OC(C)(C)C)CC4)c(C(=O)Nc4cccc(CC)c4)cn3n2)cc1,104,106
COc1cc(OC)cc(-c2nc3nc(C)c(CCC(=O)Nc4ccccc4)c(C)n3n2)c1,106,106

# A portion from the list above, for reference:
SMILES,PV pol inh,PV pol inh intensity
Cn1c(=O)c2c(nc(SCC(=O)Nc3ccc(F)c(F)c3)n2Cc2ccccc2F)n(C)c1=O,104,107
CCOC(=O)c1cccc(NC(=O)CSc2cc(=O)n(C)c3ccccc23)c1,107,107
CC(C)(C)c1ccc(OCc2cc(=O)n3c4c(sc3n2)CCCC4)cc1,109,113
Cc1cc2oc(C(=O)N(Cc3ccco3)Cc3ccccc3Cl)c(C)c2cc1C,105,106
CCN(CC)S(=O)(=O)c1ccc2c(c1)c(=O)c(C(=O)NCCc1ccc(OC)c(OC)c1)cn2C,104,106
Cc1c(Cl)cccc1NC(=O)CSc1nc(=O)[nH]c2c1CCC2,103,100
Cc1ccc(S(=O)(=O)c2cn(C)c3cc(N4CCCC(C)C4)c(F)cc3c2=O)c(C)c1 (stereo not given),103,105
Nc1c(C(=O)Nc2ccccc2Cl)c2ccccn2c1C(=O)c1ccc(Cl)cc1,105,108
CC(=O)N1CCc2cc(CNS(=O)(=O)c3ccccc3C(F)(F)F)ccc21,106,108
COc1ccc(CCNC(=O)C(=O)NCC(c2ccc3c(c2)OCO3)N2CCOCC2)cc1 (stereo not given),108,104
CCOc1ccc(S(=O)(=O)c2cn(C)c3ccccc3c2=O)cc1,105,110
Cc1cccc(NC(=O)c2ccc3oc(=O)c(S(=O)(=O)c4ccc(F)cc4)cc3c2)c1C,112,110
COC(=O)c1ccccc1NC(=O)Cn1c(=O)n(CCC(=O)NCc2ccccc2OC)c(=O)c2ccccc21,106,103
Cc1cc(C)c2c(=O)cc(C(=O)Nc3sc4c(c3C(=O)NCC3CCCO3)CCCC4)oc2c1 (stereo not given),105,108
COc1cc2ccccc2cc1C(=O)Nc1ccc(Cl)c(-c2nc3ccccc3o2)c1,102,105
O=C(c1cc2ccc3cccnc3c2[nH]1)N1CCN(c2ccc(Cl)cc2)CC1,111,111
CCOc1ccc(-c2cc3nc(C4CCN(C(=O)OC(C)(C)C)CC4)c(C(=O)Nc4cccc(CC)c4)cn3n2)cc1,104,106
COc1cc(OC)cc(-c2nc3nc(C)c(CCC(=O)Nc4ccccc4)c(C)n3n2)c1,106,106

# Further records follow.
SMILES,PV pol inh,PV pol inh intensity
Cc1cccc(NC(=O)C2CCN(S(=O)(=O)c3ccc(F)cc3)CC2)c1C,107,111
CCCCN(CCCC)CCNC(=O)c1cn(CC)c2ccc(S(=O)(=O)N(C)C3CCCCC3)cc2c1=O,107,107
O=C(Nc1cccc(-c2nc3cccnc3s2)c1)c1cccc(Br)c1,109,104
O=C(NCCc1ccc(Cl)cc1)c1nnc(Cc2ccc(Cl)cc2Cl)o1,103,111
CCOc1cccc(NC(=O)C2CC(=O)N(CC)C(=Nc3ccc(F)cc3)S2)c1 (stereo not given),107,107
Cc1cc(=O)n2[nH]c(NC(=O)c3cccc(Cl)c3)nc2n1,103,103
CC(C)(C)c1ccc(C(=O)NNc2ncnc3c2cnn3-c2ccccc2)cc1,101,104
CCC(=O)N1CCc2cc(S(=O)(=O)CCC(=O)NCc3cccc(OC)c3)ccc21,110,105
Cc1ccc(CCNC(=O)CCn2c(=O)c3cccn3c3ccc(F)cc32)cc1,103,105
CCC(=O)Nc1cccc(C(=O)OCc2cc(=O)n3nc(CC)sc3n2)c1,107,111
Cn1c(=O)c2c(SCC(=O)NCC3CCCO3)nc(-c3cccc(F)c3)nc2n(C)c1=O (stereo not given),106,107
CCOC(=O)c1ccc(N2C(=O)c3n[nH]c(-c4ccco4)c3C2c2ccc(C(=O)OC)cc2)cc1 (stereo not given),111,109
O=C(NC1CCCCC1)c1ccc2c(c1)sc1nc(-c3ccc(F)cc3)cn12,107,110
CCOc1ccc(CCNC(=O)CCCc2cc(-c3ccc(OCC)cc3)on2)cc1,103,108
CCC(=O)Oc1ccc(C2Nc3ccccc3-c3nnc(SC)nc3O2)cc1 (stereo not given),103,104
COc1ccc(OC)c(NC(=O)c2cc(-c3ccc(Cl)s3)nc3ccccc23)c1,103,103
CC(=O)Nc1ccc(NS(=O)(=O)c2ccc3c(c2)CCCN3C(C)=O)cc1,108,102
COc1ccc(CCNC(=O)NCc2noc3ccc(C)cc23)c(OC)c1,100,109
CCc1ccc(CNC(=O)CCN2C(=O)COc3ccccc32)cc1,108,104
Cc1ccc(-c2[nH]c3c(c2-c2c(-n4cccc4)n(C)c(=O)[nH]c2=O)c(=O)[nH]c(=O)n3C)cc1,107,107
O=C(c1ccccc1)c1ccc2nc(Nc3ccccc3Cl)c3nncn3c2c1,101,109
COc1ccc(CCC(=O)NCc2ccc3c(c2)CCN3C(=O)c2ccccc2)cc1,109,113
Cc1ccc(NC(=O)Cn2c(=O)n(Cc3ccco3)c(=O)c3ccccc32)c(C)c1,108,111
Cc1nc(-c2ccc(C)c(N3CCN(C(=O)Nc4ccc(Br)cc4)CC3)c2)no1,106,108
O=C(CSc1nc2c(cnn2-c2ccc(F)cc2)c(=O)[nH]1)Nc1ccc(Br)cc1,106,109
CC(C)NC(=O)C1CCC(Cn2c(=O)c3sccc3n(Cc3ccc(F)cc3)c2=O)CC1 (stereo not given),104,106
CC(=O)c1ccc(N2CCN(C(=O)C3CCN(S(=O)(=O)c4ccc(Br)s4)CC3)CC2)cc1,113,107
CCCCN(C)S(=O)(=O)c1ccc(C(=O)Nc2sc3c(c2C(=O)OCC)CCN(C(C)C)C3)cc1,108,109
COc1cccc(CNC(=O)CCC(=O)N2CC(C)Sc3ccccc32)c1 (stereo not given),105,108
O=C(COc1ccc(Cl)cc1)Nc1nnc(S(=O)(=O)N2CCCCCC2)s1,103,105
CCC(Sc1ncc(S(=O)(=O)c2ccc(C)cc2)c(=O)[nH]1)C(=O)Nc1cc(C)ccc1C (stereo not given),101,102
Cc1ccc(C)c(N2CCN(C(=O)CCCn3ncn4c(cc5occc54)c3=O)CC2)c1,110,108
CC(=O)Nc1nonc1-c1nnc(SCc2cccc(Br)c2)n1C,115,115
COc1ccccc1C1CC(=O)NC(C)=C1C(=O)OC1CCCCCC1 (stereo not given),109,112
COc1ccc(CNc2nc3c(-c4ccc(C)cc4)nnn3c3ccccc23)cc1,106,109
Cc1nc2cc(C(=O)NCCC3=CCCCC3)ccc2n1-c1ccc(Br)cc1,108,113
COc1ccccc1NC(=O)c1sc2nc(C)c(C(=O)Nc3ccc(C)cc3C)c(-c3ccc(C)o3)c2c1N,110,110
CCOc1ccc(-c2cc(-c3nc(-c4cc(OC)c(OC)c(OC)c4)no3)[nH]n2)cc1Cl,108,111
Cc1ccc(NCc2cccn2-c2nnc(N3CCC(C(=O)NC(C)C)CC3)s2)cc1,111,108
CCOC(=O)c1c(S(=O)(=O)N2CCCC(C(=O)NCc3ccc(Cl)cc3)C2)c(C)n(C)c1C (stereo not given),103,109

# Full records, quoted from the list. Screens in order: PV pol inh | PV pol inh intensity
# CCOC(=O)c1c(S(=O)(=O)N2CCCC(C(=O)NCc3ccc(Cl)cc3)C2)c(C)n(C)c1C (stereo not given) as listed: 103 | 109
# Cc1ccc(C)c(N2CCN(C(=O)CCCn3ncn4c(cc5occc54)c3=O)CC2)c1 as listed: 110 | 108
# CCC(Sc1ncc(S(=O)(=O)c2ccc(C)cc2)c(=O)[nH]1)C(=O)Nc1cc(C)ccc1C (stereo not given) as listed: 101 | 102

# The list goes on:
SMILES,PV pol inh,PV pol inh intensity
Cc1ccc(Cn2c(C)c3cnn(CC(=O)NCc4ccccc4)c(=O)c3c2C)cc1,104,105
Cc1ccc(SCc2nc(-c3ccc(C(=O)NCC(C)c4ccccc4)cc3)oc2C)cc1 (stereo not given),100,101
COc1ccc(CN2COc3ccc4c(-c5ccc(OC)cc5)cc(=O)oc4c3C2)cc1,109,115
O=C(NCc1ccc(Cl)cc1)c1cnc2sc(N3CCOCC3)nn2c1=O,100,103
COc1ccccc1-c1cc(C(F)(F)F)nc(S(=O)(=O)CCCC(=O)Nc2cc(C)ccc2O)n1,106,108
O=C(c1ccccc1)N1CCCCC1CCN1CCCCC1 (stereo not given),106,102
Cc1ccc(C)c(NC(=O)Cn2c(=O)n(-c3ccc(CC(=O)NCC4CCCO4)cc3)c(=O)c3ccccc32)c1 (stereo not given),110,112
Cc1ccc(NC(=O)Nc2ccc3snnc3c2)cc1C,104,108
Cc1cccc(-c2noc(CSc3nc(-c4ccc(F)cc4)cc(=O)[nH]3)n2)c1,104,111
COc1ccc(CNC(=O)Cc2c(C)c3cc4c(C)coc4cc3oc2=O)cc1,108,114
COc1ccc(NC(=O)Cn2c(=O)n(Cc3ccco3)c(=O)c3oc4ccccc4c32)cc1Cl,108,109
COc1ccccc1N1CCN(c2ncnc3c2nc2n3CCCC2)CC1,106,105
